Rango dissoc inh: prevents RanGTP from dissociating the Rango-importin beta complex; O95149+P62826; Biochemical FRET Rango-importin beta, RanGTP-induced dissociation; Potency, µM (titrated, usually from 46.1 µM), inactives show at the highest dose activity change, negative = inhibition; 340,000 tested, 0.071% active; AID 540253; active means falling FRET ratio curve, often poorly fitted, with flat reads before Ran was added; inconclusive means other falling curves, or compound fluorescence or quenching; inactive means flat or rising ratio curve;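 further: potency means the concentration at half of the fitted maximal effect; % of control where 0% means no effect; nearly all actives have a fitted effect of over 45% in size; -100% = wells without RanGTP and RCC1; the record marks most hits as doubtful in a second field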
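Two FRET readings bracket the reaction: one 5 min after compound meets Rango–importin beta, another 45 min after RanGTP-RCC1 (0.6 uM Ran, 0.2 uM RCC1, 2 mM GTP) is added. Only the second defines inhibition.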
Rango-impB inh: prevents formation of the Rango-importin beta complex | Rango CFP/YFP FRET sensor + importin beta, 45 min | Potency, µM (highest dose often 92.2 µM), for inactives: at the highest dose inhibition of complex formation | Q14974 | 340,000 tested, 0.031% active; active = rising FRET ratio curve, often small or poorly fitted; inconclusive = mostly compound fluorescence or quenching in the first reads; inactive = flat curves in all reads;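 further: potency means the concentration at half of the fitted maximal effect; 0% = DMSO wells and 100% = buffer wells lacking importin beta; nearly all actives have a fitted effect of over 15% in size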
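FRET biosensor (snurportin 1 IBB flanked by EYFP and cerulean), 50 nM, with compound 5 min, then 0.125 microM importin beta in PBS, 1 mM DTT, 0.02% Tween-20, 0.1% BSA. CFP/YFP ratio read after 45 min at room temperature; pre-read flags interference.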
GLA inh pH 4.5: blocks human alpha-galactosidase A at pH 4.5; P06280; purified enzyme, 4-MU-alpha-Gal fluorescence, pH 4.5; activity change, negative = inhibition, % at 105 µM; 230,000 tested, under 10 active; AID 1467; inconclusive = small, poorly fitted or top-dose-only inhibition, or a rising curve; inactive = flat fitted curve, though single readings scatter; no compound was filed as active;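 further: 0% = full activity with enzyme and -100% = basal without enzyme; dose as in the result columns while the protocol names 77 µM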
Target sequence (P06280 whole entry, looked up): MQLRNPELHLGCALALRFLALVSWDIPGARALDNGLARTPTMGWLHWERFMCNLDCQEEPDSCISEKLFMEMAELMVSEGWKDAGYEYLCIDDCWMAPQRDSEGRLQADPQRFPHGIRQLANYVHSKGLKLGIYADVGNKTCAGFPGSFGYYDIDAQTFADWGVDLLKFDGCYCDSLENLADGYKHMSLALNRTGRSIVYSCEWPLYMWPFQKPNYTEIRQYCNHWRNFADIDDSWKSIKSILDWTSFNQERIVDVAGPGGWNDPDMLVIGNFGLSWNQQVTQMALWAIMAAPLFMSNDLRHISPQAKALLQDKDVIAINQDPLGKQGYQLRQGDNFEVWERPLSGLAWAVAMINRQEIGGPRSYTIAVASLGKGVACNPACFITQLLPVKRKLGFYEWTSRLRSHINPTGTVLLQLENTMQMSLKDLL
miR-21 reporter: miR-21 reporter, rising signal. AID 2288. 340,000 tested, under 10 active. Potency, µM (highest dose often 38.3 µM), for inactives: at the highest dose reporter change, positive = more light. HeLa miR-21 FLuc reporter, luciferase, 48 h; active = well fitted rising curve with a large enough effect; inconclusive = small, poorly fitted or top-dose-only effect; inactive = no such curve, though single readings can be large or run the other way;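 further: % of control where 0% means no effect; miR-21 action dims this reporter so a rising signal means less miR-21 action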
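Compounds were titrated across several concentrations (up to approximately 40 uM) and incubated 48 hours with HeLa miR-21-FLuc reporter cells (miR-21 target sequence downstream of FLuc, endogenous miR-21). Readout was firefly luciferase luminescence after lytic detection reagent.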
Active calls of the source: *; ? = inconclusive; nt = not tested or not shown. This is a subset; count on the stated rates, not on these rows.

compound | Rango dissoc inh | Rango-impB inh | GLA inh pH 4.5 | miR-21 reporter
COCCN(C(=S)Nc1cc(C)cc(C)c1)C(C)c1cccnc1 (centres undefined) | 1% | -4.4% | 18 | -14%
COCCc1ncc(CN2CCCC(C(=O)Nc3cccc(-c4cccc(C)c4)c3)C2)cn1 (centres undefined) | 12% | 2.1% | nt | 17%
O=C(O)CCn1c(-c2ccccc2)cc2ccccc21 | 0% | -3.6% | 6 | 0%
CCOC(=O)c1c(/N=C/N(C)C)sc(C=O)c1-c1ccccc1 | ? | ? | 4 | 1%
CCn1c(=O)c(CCC(=O)NCC2CCCO2)c(C)c2c(C)nn(-c3ccccc3)c21 (centres undefined) | -14% | 7.3% | nt | 0%
Cc1[nH]c(=O)[nH]c(=O)c1S(=O)(=O)N1CCCC1 | -11% | -0.4% | 16 | 0%
Cc1ccc(CCNC(=O)C2CCN(S(=O)(=O)c3cccc4nsnc34)CC2)cc1 | -14% | -6.0% | -2 | -12%
COc1ccc(-c2nnc(-c3cccnc3)o2)cc1 | 16% | 4.4% | 5 | -60%
Cc1ccc(Nc2nc(N3CCOCC3)nc(N3CCOCC3)n2)cc1C | -20% | 4.6% | nt | -15%
Cc1cc(NC(=O)CC#N)n(-c2nc3ccccc3[nH]2)n1 | -13% | ? | -9 | -25%
CC(C)CN(CC(C)C)C(=O)Cc1coc2ccc3ccccc3c12 | 11% | -1.9% | -7 | 2%
O=C(O)CCCC(=O)Nc1cccc([N+](=O)[O-])c1 | 1% | -1.2% | -3 | 2%

Some of the entries above in a different format.
CCn1c(=O)c(CCC(=O)NCC2CCCO2)c(C)c2c(C)nn(-c3ccccc3)c21 (centres undefined)
  Rango dissoc inh: -14%; Rango-impB inh: 7.3%; GLA inh pH 4.5: nt; miR-21 reporter: 0%
Cc1[nH]c(=O)[nH]c(=O)c1S(=O)(=O)N1CCCC1
  Rango dissoc inh: -11%; Rango-impB inh: -0.4%; GLA inh pH 4.5: 16; miR-21 reporter: 0%

Additional structures
compound | Rango dissoc inh | Rango-impB inh | GLA inh pH 4.5 | miR-21 reporter
CCc1c(C)nc(SCC(=O)c2ccc(C)c(C)c2)[nH]c1=O | -5% | 3.5% | -1 | -4%
O=C(CNC1CCCC1)Nc1ccc(N2CCCCCC2)cc1 | -11% | -3.3% | 16 | -4%
CC(OC(=O)c1ccccc1O)C(=O)Nc1cccc(Cl)c1 (centres undefined) | -10% | 5.8% | 2 | -2%
COC(=O)c1sc(NC(=O)COc2cccnc2[N+](=O)[O-])c(C(=O)OC)c1C | -8% | -1.8% | nt | nt
CCOC(=O)c1c(C)n(C)c2ccc(OC)c(NC(=O)CCN3CCSCC3)c12 | 3% | 3.6% | -1 | -4%
COc1ccc(-c2nc3c(n2O)CCCC3=O)cc1OC | 1% | 2.0% | -9 | -2%
NC(=O)c1ccccc1N | 1% | -0.7% | nt | nt
CS(=O)c1nc(-c2ccc(Br)cc2)cc(-c2ccccc2)c1C#N (centres undefined) | -7% | 8.7% | -8 | 15%
Nc1cccc(P(=O)(c2ccccc2)c2ccccc2)c1 | -6% | 3.2% | nt | 1%
Cc1nn(-c2ccccc2)c(N)c1C(O)(CC(=O)C(F)(F)F)C(F)(F)F (centres undefined) | -1% | 0.8% | -1 | -1%
CN1C(=O)CSc2ccc(NC(=O)Nc3ccccn3)cc21 | 9% | ? | -9 | -23%
COC(=O)C1C2C=CC3(CN(Cc4cccs4)C(=O)C13)O2 (centres undefined) | 31% | 2.2% | -2 | -8%

Structures listed so far containing a COOH group (two):
compound | Rango dissoc inh | Rango-impB inh | GLA inh pH 4.5 | miR-21 reporter
O=C(O)CCn1c(-c2ccccc2)cc2ccccc21 | 0% | -3.6% | 6 | 0%
O=C(O)CCCC(=O)Nc1cccc([N+](=O)[O-])c1 | 1% | -1.2% | -3 | 2%

Further results follow.
compound | Rango dissoc inh | Rango-impB inh | GLA inh pH 4.5 | miR-21 reporter
CC(=O)Nc1ccc(NC(=O)COC(=O)c2ccc(S(=O)(=O)N(C)c3ccccc3)cc2)cc1 | 4% | -4.6% | nt | nt
CN(CCc1ccccn1)S(=O)(=O)c1ccc(F)cc1 | 0% | -1.5% | -2 | -5%
COC(=O)c1cc2ccccc2c(-c2c(O)ccc3ccccc23)c1O | -9% | -0.4% | -2 | 13%
Brc1ccc(Oc2ncc(CN3CCOCC3)s2)cc1 | 1% | -2.1% | -10 | -32%
Nc1nc2nc(SCC(=O)N3CCCc4ccccc43)[nH]c2c(=O)[nH]1 | nt | nt | -7 | 1%
FC(F)(F)c1ccnc(Sc2n[nH]c(C(F)(F)F)n2)c1 | 2% | 2.4% | -2 | 2%
Cc1c(/C(O)=C2\C(=O)C(=O)N(CCCN(C)C)C2c2ccco2)cnn1-c1ccccc1 (centres undefined) | 0% | -0.2% | nt | nt
Cc1[nH]n(-c2ccccc2)c(=O)c1C=Nc1ccc(S(=O)(=O)N=C(N)N)cc1 | -3% | -3.9% | -2 | -3%
Cc1cc(C)nc(NNS(=O)(=O)c2ccc(Cl)cc2)n1 | -2% | -1.4% | nt | nt
Cc1ccc(CSc2ccc(S(=O)(=O)N3CCCC3)cn2)cc1 | 7% | -2.8% | nt | nt
O=C(Nc1ccc(Cl)c([N+](=O)[O-])c1)c1ccc(NCCCN2CCOCC2)c([N+](=O)[O-])c1 | -2% | 1.7% | -1 | 1%
CCOc1ccc(Nc2oc(-c3cccc(Cl)c3)nc2C#N)cc1 | -13% | -5.8% | -2 | -28%

The results go on:
Every second line gives: Rango dissoc inh, Rango-impB inh, GLA inh pH 4.5, miR-21 reporter
> O=[N+]([O-])c1ccc(/C=N/n2cnc3ccccc32)s1
→ -12%, ?, -11, ?
> CCN(CC)C(=O)Cn1nc(-c2ccccc2O)nc1SCC(=O)Nc1ccc(OC)cc1
→ -9%, 10%, -14, 5%
> Cc1cccc(Nc2ccc([N+](=O)[O-])cn2)c1
→ -11%, -1.4%, nt, -47%
> CN1CCN(C2Cc3cc(Cl)ccc3Sc3cc(F)ccc32)CC1 (centres undefined)
→ -21%, 3.9%, nt, nt
> Cc1ccc2c(c1)N(CC(=O)NCC1CCCO1)C(=O)CO2 (centres undefined)
→ 1%, 0.0%, nt, -2%
> CCC(=O)Nc1cccc(C(=O)OCc2cccc([N+](=O)[O-])c2)c1
→ -1%, -0.8%, 3, -2%
> O=C(CSc1cccc2cccnc12)N/N=C/c1cccnc1
→ -5%, 6.1%, 3, ?
> Cc1cc2c(=O)n(C)c(SCC(=O)NC3CCCC3)nc2s1
→ -3%, 0.1%, nt, nt
> COc1ccc(S(=O)(=O)NCc2ccccn2)cc1
→ 16%, -4.4%, -2, 1%
> CN(C)CCCN(C(=O)c1cc2ccccc2oc1=O)c1nc2ccc(F)cc2s1
→ 1%, -5.6%, 6, -18%
> NC(=O)CSc1nnc(-c2ccc(S(=O)(=O)N3CCCC3)cc2)n1CC1CCCO1 (centres undefined)
→ -10%, -0.5%, 10, -1%
> CC1CCCN(Cc2ccc(OCc3ccccc3)cc2)C1 (centres undefined)
→ -3%, -0.1%, nt, -32%
> Cc1cccn2c(=O)c3cc(C(=O)NC4CCCCC4)c(=N)n(Cc4ccccc4)c3nc12
→ ?, ?, nt, 0%
> Nc1ccc(Sc2cnn(-c3ccccc3)c(=O)c2Cl)cc1
→ 2%, 0.8%, 7, -12%
> O=C(CSc1nc2c(cnn2-c2ccccc2)c(=O)[nH]1)N1N=C(c2cccs2)CC1c1ccc(F)cc1 (centres undefined)
→ -13%, 2.9%, -7, -3%
> Nc1ccc2nc(C(F)(F)F)[nH]c2c1
→ 20%, 2.9%, -2, 2%
> COc1ccc([C@@H]2Sc3ccccc3NC(=O)[C@@H]2O)cc1
→ 1%, -2.3%, nt, nt
> O=c1[nH]cnc2c1ccn2C1OC(CO)C(O)C1O (centres undefined)
→ -7%, 5.7%, nt, nt
> CN(CC(=O)Nc1ccccc1N1CCOCC1)CC(=O)Nc1ccc(F)c(F)c1F
→ 13%, -3.8%, -6, 5%
> CN(C)S(=O)(=O)c1cccc(NC(=O)COC(=O)CNC(=O)c2cccc([N+](=O)[O-])c2)c1
→ 15%, -0.2%, -10, 9%
> Cc1ccc(C)c(NC(=O)CCN2CCN(C)CC2)c1
→ 19%, 1.9%, nt, -2%
> Cc1cccc(NC(=O)c2ccccc2O)c1C
→ 1%, 7.0%, 5, -26%
> CNC(=O)c1c[nH]n2c(=O)c(Cc3ccccc3F)c(C)nc12
→ 30%, -3.0%, 2, 5%
> Cc1ccc(S(=O)(=O)N(C)CC(=O)Nc2cc(C)ccn2)cc1
→ 4%, 3.7%, nt, nt
> CN1CCN(c2ccc(NC(=S)NC(=O)c3cccc4ccccc34)cc2)CC1
→ 1%, -1.7%, nt, 1%
> CCOC(=O)c1c(C)[nH]c(C)c1C(=O)COC(=O)c1nc2nccc(C)n2n1
→ -26%, -1.7%, 2, 2%
> COCC(=O)Nc1ccc(S(=O)(=O)NCCc2ccccc2)cc1
→ -14%, 2.1%, -7, 13%
> O=C(CCn1cccc1)Nc1nccs1
→ 0%, 1.9%, 5, 0%
> COC(=O)CSc1cccc2c1C(=O)CC2c1ccccc1 (centres undefined)
→ 1%, -1.9%, nt, 0%
> Cc1cc(C)n2nc(SCCCC(=O)c3ccc(F)cc3)nc2n1
→ -13%, 5.3%, 10, -2%
> COc1ccc(CNC(=O)[C@H](C)NC(=O)C2CCN(S(=O)(=O)c3ccccc3)CC2)cc1
→ -8%, -1.2%, nt, -2%
> O=C(N/N=C/c1c(Nc2cccc(C(F)(F)F)c2)nc2ccccn2c1=O)c1ccccc1[N+](=O)[O-]
→ -15%, -0.6%, 1, -1%
> Cc1ccc(-c2nc(SCC(=O)NCC3CCCO3)c(-c3ccc(Cl)cc3)[nH]2)cc1 (centres undefined)
→ 1%, 0.7%, -5, -10%
> COc1ccc(C(=O)CSc2nnc(C3CCCCC3)n2N)c(OC)c1
→ 12%, 1.2%, 2, 0%
> Cn1c(=O)c2c(nc(SCC(=O)NCc3ccc4c(c3)OCO4)n2Cc2ccccc2)n(C)c1=O
→ 4%, 3.0%, -5, -4%
> COc1ccccc1S(=O)(=O)Nc1ccc2cn[nH]c2c1
→ 1%, 6.0%, 5, -3%
> O=C(CN1CCN(S(=O)(=O)c2ccc(F)cc2)CC1)Nc1ccc(Cl)c(C(F)(F)F)c1
→ -8%, -2.2%, -2, 28%
> Cc1cc(C)c(C(=O)NNC(=O)c2cccnc2)c(C)c1
→ -9%, -1.6%, nt, 0%
> O=C(NCCc1ccccc1)NC1CCCCC1
→ 6%, -2.9%, 1, -11%
> Cc1cc(C)cc(NC(=O)CSc2nc(N)c(NC(=O)c3cccs3)c(=O)[nH]2)c1
→ 7%, -0.7%, 5, -9%
> COc1cccc(NC(=O)COC(=O)/C=C/c2c(C)nn(-c3ccccc3)c2C)c1
→ -9%, -3.5%, nt, nt
> Nc1nonc1-c1nc2ccccc2n1CC(=O)N/N=C/c1ccc(-c2ccccc2C(=O)O)o1
→ 0%, 1.5%, 9, 3%
> CCN(CC)C(=O)COc1cc(C)cc2oc(=O)cc(-c3ccccc3)c12
→ -13%, 2.8%, 14, -18%
> O=C(CN(Cc1ccccc1)S(=O)(=O)c1ccc(S(=O)(=O)N2CCOCC2)cc1)Nc1ccccc1
→ 1%, 1.1%, 3, -1%
> OC1NC(=S)N(c2ccccc2)C1O (centres undefined)
→ -8%, 0.3%, 0, 3%
> Cc1ccc(-n2c(SCC(=O)NCC3CCCO3)nnc2-c2ccoc2C)cc1 (centres undefined)
→ -10%, 0.5%, 3, -1%
> O=C(c1ccccc1Cl)N1CCNCC1
→ -3%, 0.2%, -6, -6%
> CCCCN(C(=O)c1nn(C)c(=O)c2ccccc12)c1c(N)n(CC(C)C)c(=O)[nH]c1=O
→ -26%, -1.5%, nt, nt
> Cc1ccc(F)cc1NC(=O)CSc1ncccn1
→ -4%, -3.9%, 1, -2%

Single records (already shown). Order of screens: Rango dissoc inh | Rango-impB inh | GLA inh pH 4.5 | miR-21 reporter
Cc1ccc(F)cc1NC(=O)CSc1ncccn1 is listed with -4% | -3.9% | 1 | -2%
Cc1cc(C)c(C(=O)NNC(=O)c2cccnc2)c(C)c1 is listed with -9% | -1.6% | nt | 0%

Compound activity as filed in PubChem.
